LYPLA1 counter: LYPLA1 inhibitors, primary screen, counter-screen for PME1 inhibitor project, biochemical, fluorescence polarization, FP-Rh probe ABPP; Acyl-protein thioesterase 1 (Homo sapiens), O75608; AID 2174, 2009; recombinant LYPLA1; actives 0.16% (n = 320,000); inhibition, % at 5.9 µM;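 active = inhibition above the mean of all tested compounds plus 3 SD, set per campaign, cut at about 14% in these data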;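 note: inhibitors block serine hydrolase probe labeling of LYPLA1 so polarization falls; 0% = enzyme with DMSO and 100% = wells lacking LYPLA1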
Target sequence (O75608 whole entry, looked up): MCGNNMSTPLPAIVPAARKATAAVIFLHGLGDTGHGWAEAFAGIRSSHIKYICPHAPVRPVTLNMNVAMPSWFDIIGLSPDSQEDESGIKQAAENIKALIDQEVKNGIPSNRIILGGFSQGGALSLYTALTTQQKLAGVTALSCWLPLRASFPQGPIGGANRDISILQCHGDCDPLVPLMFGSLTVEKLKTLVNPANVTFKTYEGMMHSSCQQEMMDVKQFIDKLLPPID
PAD4 inh: human PAD4 inhibitors, primary screen, biochemical, fluorescence polarization, 1536-well format; Protein-arginine deiminase type-4 (Homo sapiens), Q9UM07; recombinant PAD4, RCA probe fluorescence polarization; actives 0.41% (n = 330,000); inhibition, % at 6.36 µM;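 active = percent inhibition above a cutoff equal to the mean of all tested compounds plus 3 SD, cut at about 15% in these data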;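 note: 0% = PAD4 with RCA probe and DMSO and 100% = probe without PAD4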
PAFAH1B3 inh: PAFAH1B3 enzyme inhibitors, primary screen, biochemical, fluorescence polarization, human; Platelet-activating factor acetylhydrolase IB subunit alpha1 (Homo sapiens), Q15102; recombinant PAFAH1B3, FP-rhodamine probe; inhibition, % at 3.39 µM; actives 0.28% (n = 340,000); AID 492972, 2010;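 active = inhibition above the screen-wide average of all tested compounds plus 3 SD, cut at about 25% in these data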;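 note: 0% = enzyme with DMSO only and 100% = wells lacking PAFAH1B3 protein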
Target sequence (Q15102 whole entry, looked up): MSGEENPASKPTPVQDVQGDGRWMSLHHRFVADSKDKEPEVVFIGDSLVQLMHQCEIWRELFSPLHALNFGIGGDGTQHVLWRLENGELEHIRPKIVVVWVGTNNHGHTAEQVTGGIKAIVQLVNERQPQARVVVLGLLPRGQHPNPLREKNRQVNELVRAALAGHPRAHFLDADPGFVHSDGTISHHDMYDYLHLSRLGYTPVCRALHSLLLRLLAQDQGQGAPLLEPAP
pPAFAH FP inh: pPAFAH enzyme inhibitors, primary screen, biochemical, fluorescence polarization, human; Platelet-activating factor acetylhydrolase (Homo sapiens), Q13093; recombinant pPAFAH, FP-rhodamine probe fluorescence polarization; inhibition, % at 3.39 µM; actives 1.5% (n = 330,000);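 active = inhibition above the mean inhibition across the screen plus 3 SD, cut at about 25% in these data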;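 note: inhibitors block binding of the rhodamine activity-based probe so polarization drops; 0% = enzyme with DMSO and 100% = wells lacking pPAFAH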
GSTO1 counter: inhibitors of recombinant GSTO1, primary screen, counter-screen for RBBP9 inhibitor project, biochemical, fluorescence polarization. activity-based probe fluorescence polarization. inhibition, % at 5.96 µM. actives 1.1% (n = 300,000). AID 1974, 2009;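 active = inhibition above the campaign mean inhibition plus 3 SD, cut at about 35% in these data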;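 note: 0% = GSTO1-1 with DMSO and 100% = wells lacking GSTO1-1 enzyme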
Target sequence (P78417 whole entry, looked up): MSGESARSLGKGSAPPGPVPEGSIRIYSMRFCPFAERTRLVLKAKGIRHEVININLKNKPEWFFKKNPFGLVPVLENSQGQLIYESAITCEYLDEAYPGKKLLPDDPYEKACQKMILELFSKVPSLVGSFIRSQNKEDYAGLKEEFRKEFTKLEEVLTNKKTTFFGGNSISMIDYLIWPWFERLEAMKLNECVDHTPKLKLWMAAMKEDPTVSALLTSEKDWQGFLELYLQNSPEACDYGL
LYPLA2 counter: LYPLA2 inhibitors, primary screen, counter-screen for PME1 inhibitor project, biochemical, fluorescence polarization, FP-Rh probe ABPP; Acyl-protein thioesterase 2 (Homo sapiens), O95372; actives 0.38% (n = 320,000); inhibition, % at 5.9 µM; recombinant LYPLA2; AID 2177, 2009;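 active = inhibition above the screen-wide mean plus 3 SD, limit set per campaign, cut at about 26% in these data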;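 note: 0% = LYPLA2 with DMSO and 100% = wells lacking LYPLA2 enzyme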
PAFAH1B2 FP inh: PAFAH1B2 enzyme inhibitors, primary screen, biochemical, fluorescence polarization, human. recombinant PAFAH1B2, FP-rhodamine activity probe. AID 492953, 2010. inhibition, % at 3.39 µM. Platelet-activating factor acetylhydrolase IB subunit alpha2 (Homo sapiens), P68402. actives 1.2% (n = 340,000);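 active = inhibition above the mean of all tested compounds plus 3 SD, cut at about 24% in these data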;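 note: 0% = enzyme with DMSO and 100% = wells lacking PAFAH1B2; many of its hits are not listed in these tables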
Target sequence (P68402 whole entry, looked up): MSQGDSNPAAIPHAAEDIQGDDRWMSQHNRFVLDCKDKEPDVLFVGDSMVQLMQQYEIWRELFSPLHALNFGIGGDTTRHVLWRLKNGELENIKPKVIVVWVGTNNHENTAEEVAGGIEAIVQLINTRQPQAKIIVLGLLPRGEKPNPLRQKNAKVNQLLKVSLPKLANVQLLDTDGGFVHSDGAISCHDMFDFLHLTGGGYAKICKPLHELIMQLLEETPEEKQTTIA
PAFAH2 inh: PAFAH2 enzyme inhibitors, primary screen, biochemical, fluorescence polarization, human | Platelet-activating factor acetylhydrolase 2, cytoplasmic (Homo sapiens), Q99487 | actives 0.99% (n = 340,000) | inhibition, % at 3.39 µM | recombinant PAFAH2, FP-rhodamine activity probe;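 active = inhibition above the mean over all tested compounds plus 3 SD, cut at about 30% in these data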;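 note: inhibitors block probe labeling of enzyme so polarization drops; 0% = enzyme with DMSO and 100% = wells lacking PAFAH2 protein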
The depositor's hits bear a star; . = no result given. The list is partial; count on the stated rates, not on these rows.

SMILES	LYPLA1 counter	PAD4 inh	PAFAH1B3 inh	pPAFAH FP inh	GSTO1 counter	LYPLA2 counter	PAFAH1B2 FP inh	PAFAH2 inh
COc1ccc(Cl)cc1-c1n[nH]c(=S)n1C1CCCCC1	-0.2	1.9	-9.4	-2.6	-5.9	-3.7	-1.2	0.9
COc1ccc(-c2csc(N3CCC(c4ccccc4)CC3)n2)cc1	4.1	-5.5	-0.4	2.2	-0.6	6.2	-6.5	-7.0
Cc1nn(C)cc1CN(C)C(=O)c1sc2cccc(Cl)c2c1Cl	-2.7	-1.9	0.9	4.8	4.8	-2.5	-1.3	-1.1
Cc1ccc2c(c1)C(c1ccccc1)N(C(=O)c1cc3ccccc3oc1=O)CC(=O)N2 (stereo unspecified)	4.1	3.8	1.7	-4.4	2.2	3.0	7.4	6.3
COc1ccccc1CNS(=O)(=O)c1ccc(-c2cnc(C3CC3)o2)cc1	-3.5	-6.3	6.9	-8.2	-1.7	-2.1	2.5	1.5
COc1ccc(Cn2ccc(=O)c(Cc3c(Cl)cccc3Cl)c2C)cc1	-3.0	-3.5	4.1	2.5	-0.6	-6.1	-0.7	0.6
COc1ccc(/C=C2/Sc3ccc(C(=O)NCCN4CCCCCC4)cc3NC2=O)cc1	4.0	-0.9	-3.1	2.1	-40.5	-6.9	-4.5	0.7
CC(=O)Nc1ccc2nc(NC(=O)COc3ccccc3Cl)sc2c1	-7.8	-3.1	4.2	-4.5	-7.1	-8.4	-0.4	-0.6
Cc1[nH]c2ccccc2c1/C=N/NC(=O)c1cc(C(C)C)[nH]n1	2.1	-0.6	5.7	1.5	3.9	10.3	-2.5	-0.1
O=C(CNc1ccc(C(F)(F)F)cc1[N+](=O)[O-])OCC(=O)c1ccccc1	-3.2	-1.0	7.8	7.5	13.4	3.8	4.6	3.3
CC1(C)Cc2c(sc3nc(N/N=C/c4ccccc4)[nH]c(=O)c23)CO1	1.9	-1.7	-3.2	8.3	-0.9	5.3	4.8	5.3
CC1CCCN(c2nc3ccccc3nc2C(C#N)S(=O)(=O)c2cccs2)C1 (stereo unspecified)	-0.8	-5.7	-4.4	6.0	-22.7	2.2	8.2	21.7
COc1ccc(Cl)cc1-c1nc(-c2ccc(NC(=O)c3ccncc3)cc2)no1	-10.3	-2.5	-41.3	-10.3	-11.6	-26.4	-27.4	-63.8
COc1cccc(CN2CCN(C(=O)c3cccc4ccccc34)CC2)c1OC	-1.4	-0.7	-6.2	-1.1	5.7	1.5	2.0	-0.8
COc1cccc2sc3ccc(C#Cc4ccc(N)cc4)cc3c(=O)c12	-5.4	1.7	9.2	13.8	2.0	-11.2	7.5	-6.4
Cc1ccc(NC(=O)c2cccc(S(=O)(=O)N3CCCCC3)c2)cc1	-5.1	4.3	-1.2	3.3	2.4	-2.6	3.3	-5.4
CC1CCN(S(=O)(=O)c2cn(CC(=O)Nc3ccc(OC(F)(F)F)cc3)cn2)CC1	-2.0	-6.2	4.5	-3.0	2.4	-1.4	1.1	4.2
O=C(N[C@@H](Cc1ccccc1)C(=O)OCc1ccccc1)c1nc[nH]c1C(=O)NC1CCNCC1	-2.0	-2.1	0.5	5.0	-1.1	-0.7	-7.2	4.7
O=C(NC1CCc2ccccc21)C1CCN(S(=O)(=O)c2ccc(Cl)cc2)CC1 (stereo unspecified)	0.9	0.0	3.0	0.5	1.4	-1.6	18.9	-2.8
COc1ccccc1NS(=O)(=O)c1cc(C(=O)N2CC(C)CC(C)C2)ccc1C (stereo unspecified)	0.9	0.6	0.0	3.8	-6.5	7.2	13.6	2.3
S=c1[nH]nc(Cc2ccc(Br)cc2)n1/N=C/c1ccc(Cl)cc1	-2.6	1.2	12.9	7.2	2.9	3.2	34.3*	-1.6
Cc1c(C)c2ccc(OC(C)C(=O)N3C[C@H]4C[C@@H](C3)c3cccc(=O)n3C4)c(C)c2oc1=O (stereo partly specified)	3.3	-0.6	2.9	10.4	3.8	10.1	4.6	5.0
COc1cccc2sc(Nc3nc(-c4ccccn4)cs3)nc12	1.6	-22.0	14.3	28.2*	-7.0	-1.0	13.2	23.8
O=C(Nc1cccc([N+](=O)[O-])c1)Nc1cccs1	-2.2	-2.4	3.1	7.1	-1.3	8.0	-5.8	0.7
CN(C)S(=O)(=O)c1ccc(C(=O)Nc2ccccc2C(=O)NCCCN2CCOCC2)cc1	-0.8	-2.5	1.7	0.7	.	4.4	2.4	8.8
COc1ccc(/C=C/C(=O)OCC(=O)c2ccc3c(c2)NC(=O)CO3)c(OC)c1	-5.1	-4.4	-3.7	-3.5	-31.0	4.7	-8.4	-0.5
CC1CC(C(F)F)n2nc(C(=O)Nc3sc4c(c3C#N)CCC(C(C)(C)C)C4)nc2N1 (stereo unspecified)	-1.3	1.9	0.8	-0.1	4.8	-3.6	5.8	-1.7
CC1CCc2nc(NC(=O)Nc3ccc4c(c3)OCO4)sc2C1 (stereo unspecified)	-4.7	2.0	0.8	12.4	-3.8	6.8	-0.2	-5.4
Cc1ccccc1-c1cc(C(=O)n2cccn2)c2cc(Cl)ccc2n1	-2.0	-2.8	-1.6	1.7	4.7	0.8	4.2	2.7
CCOC(=O)N1CCC(N2C(=O)c3ccccc3C2Nc2ccc(S(=O)(=O)N(CC)CC)cc2)CC1 (stereo unspecified)	-0.9	-3.1	4.6	5.8	2.1	3.7	10.3	8.6
O=C(CN1c2cccc3cccc(c23)S1(=O)=O)NCc1ccc2c(c1)OCO2	0.3	0.3	-0.6	4.8	0.9	0.8	-4.2	5.2
O=C(Cc1cccs1)N1CCCC(c2nc3c(nnn3Cc3ccccc3Cl)c(=O)[nH]2)C1 (stereo unspecified)	-2.1	-3.1	3.3	7.2	5.4	-2.5	-1.4	12.3
CCOC(=O)C1CCCN(C(=O)C2CCN(S(=O)(=O)c3cccs3)CC2)C1 (stereo unspecified)	1.9	0.9	-6.2	5.3	0.8	7.5	0.9	2.8
CCC(=O)Nc1nc2ccccc2n1CCN(C)C	2.7	0.8	2.9	6.8	3.2	3.3	1.0	-2.3
O=C(Nc1ccccc1)C1=C(O)CC(c2ccco2)CC1=Nc1ccccc1 (stereo unspecified)	1.2	0.5	-8.6	9.7	12.1	5.7	0.6	-0.5
COc1ccc(-n2c(=O)[nH]c3c(C(N)=O)nc(C4CCCCC4)nc32)cc1	3.0	-4.3	5.2	2.4	5.0	6.5	5.2	-1.6
O=C(CSc1ncnc2ccccc12)Nc1cc(S(=O)(=O)N2CCCCC2)ccc1Cl	-9.5	7.0	-4.1	14.8	1.1	-10.2	1.5	-0.3
CC(=O)Nc1cccc(C(=O)OCC(=O)NC(C)c2ccc(F)cc2)c1 (stereo unspecified)	-0.8	-3.8	9.6	-11.2	2.0	2.1	-0.9	46.3*
Cn1c(SCC(=O)NNC(=O)c2ccccc2Br)nnc1C(F)(F)F	0.9	-2.4	5.3	-0.3	.	2.6	-2.9	0.5
CCOc1ccc(S(=O)(=O)N2CCCCC2)cc1NC(=O)C1CSC2(C)CCC(=O)N12 (stereo unspecified)	-1.6	4.9	2.9	-0.6	5.6	-1.6	-3.4	3.0
CCC(=O)Nc1cc(-c2cc3ccccc3oc2=O)ccc1OC	2.8	1.7	5.4	2.6	6.5	-1.4	-2.2	2.1
CCCn1c(NC(=O)CCNC(=O)c2ccccc2Cl)nc2ccccc21	-2.9	-2.7	-1.4	0.4	.	-5.2	3.4	-9.7
COc1ccc(C)cc1S(=O)(=O)Nc1cccc(SC)c1	-0.1	-0.4	6.8	0.9	3.0	-0.6	1.4	3.7
O=[N+]([O-])c1ccccc1S(=O)(=O)Nc1ccc(S(=O)(=O)N2CCOCC2)cc1	1.1	2.9	-8.8	3.4	5.3	-1.9	8.5	1.6
CS/C(N)=N/C(=S)Nc1cccc(Cl)c1	-0.9	-2.4	8.3	3.6	2.6	1.7	6.7	4.5
COc1ccc(S(=O)(=O)N2CCCN(S(=O)(=O)c3ccc(OC)c(C)c3)CC2)cc1C	0.0	4.6	3.0	0.2	1.9	-1.4	0.3	3.4
COc1ccc(CNc2nc(-c3cccnc3)nn2C(=O)c2ccco2)cc1	-3.3	-7.3	6.7	0.1	0.6	3.4	3.8	8.1
O=C(O)COCC(=O)Nc1ccc(OCCc2ccccc2)cc1	-5.5	-6.7	1.0	-2.8	1.4	-6.8	10.4	0.7
CC1CCCC(NC(=O)CSc2nnc(C(F)(F)F)n2C)C1C (stereo unspecified)	-1.2	2.5	8.7	-4.3	.	-2.1	9.0	-8.1
COC(=O)C1=C(C)Nc2nnnn2C1c1cccnc1 (stereo unspecified)	5.0	-4.0	4.1	-2.1	-2.5	-1.8	1.3	-2.8
Cc1cc(C(=O)NCCCN2CCCC2=O)cs1	1.1	-0.8	-0.6	-5.7	-0.9	-2.5	2.9	-3.5
COc1ccc(CN2CCN(C(=O)c3cccc4ccccc34)CC2)cc1Br	-1.9	-1.0	10.4	3.1	5.9	4.1	2.8	4.3
CCOCCCNC(=S)NCCCNc1nc2cc3c(cc2cc1C#N)OCO3	-2.2	0.7	6.9	2.8	-6.7	1.0	3.6	1.3
O=c1[nH]c(CSc2cccc[n+]2[O-])nc2ccccc12	0.5	0.3	4.2	6.8	13.1	6.9	0.6	1.7
O=[N+]([O-])c1ccccc1S(=O)(=O)Nc1ccc(-c2ccc(N3CCCC3)nn2)cc1	0.7	2.7	2.3	23.6	4.7	3.5	-1.1	10.8
O=[N+]([O-])c1cccc(S(=O)(=O)Nc2ccc(Cc3ccncc3)cc2)c1	-0.2	7.7	8.7	21.5	12.1	3.7	2.7	2.1
Cc1c(/C=N/NC(=O)CNc2ccccc2)c2ccccn2c1C(=O)c1ccncc1	-0.7	-6.6	10.5	4.8	-5.6	-0.1	0.1	-9.5
O=[N+]([O-])c1cccc(S(=O)(=O)Nc2ccc(-c3ccc(N4CCCC4)nn3)cc2)c1	-0.6	1.7	2.2	18.3	-0.9	0.2	0.5	-1.7
CC1=C(C(=O)Nc2ccccc2)C(c2cccnc2)n2nc(-c3cccnc3)nc2N1 (stereo unspecified)	0.6	-1.9	3.7	-1.9	-5.0	9.1	4.1	-2.1
CCc1ccccc1N/N=C(/C)c1c(O)cc(C)oc1=O	1.9	4.5	-1.1	2.7	7.2	-3.3	-1.5	-5.7
Next results:
SMILES	LYPLA1 counter	PAD4 inh	PAFAH1B3 inh	pPAFAH FP inh	GSTO1 counter	LYPLA2 counter	PAFAH1B2 FP inh	PAFAH2 inh
Cc1ccc(CNC(=O)Cc2ccc(-n3c(=O)[nH]c4ccsc4c3=O)cc2)cc1	-1.8	5.8	-3.4	-11.0	-1.7	2.7	0.5	7.3
COc1cccc(NC(=O)Cc2cccs2)c1	-0.4	-4.1	1.9	5.1	-2.3	-7.7	-3.0	1.0
COc1ccc(NC(=O)N2CCN(c3nc(-c4cccc(OC)c4)cs3)CC2)cc1	-0.2	0.2	9.6	23.1	-1.0	4.7	5.0	-0.1
Cc1ccc(N(C)S(=O)(=O)c2ccc(-c3cnc(C4CC4)o3)cc2)cc1	-4.5	-3.5	1.9	-1.2	-4.3	-8.0	5.2	0.7
CCN(CC(=O)Nc1c(F)cccc1F)C(=O)C1CCN(S(=O)(=O)c2ccc(F)cc2)CC1	-0.5	-2.0	1.3	1.0	2.9	-3.6	4.7	-4.2

Screening results as filed in PubChem.
